# Screening data as filed in PubChem.
# TRPV1 PAM: human TRPV1 potentiation | hit rate 0.02% among 320,000 | AID 540277 | Q8NER1 | potentiation, % at 8.33 µM | TRPV1-expressing cells, Fluo-8 calcium influx, capsaicin EC20 potentiation; host cell line not named in the record; control for the full effect not named in the record; active means potentiation above 80%; inconclusive means 30% to 80%; inactive means below 30%; also: 0% is about no effect
# Target sequence (Q8NER1 whole entry, looked up): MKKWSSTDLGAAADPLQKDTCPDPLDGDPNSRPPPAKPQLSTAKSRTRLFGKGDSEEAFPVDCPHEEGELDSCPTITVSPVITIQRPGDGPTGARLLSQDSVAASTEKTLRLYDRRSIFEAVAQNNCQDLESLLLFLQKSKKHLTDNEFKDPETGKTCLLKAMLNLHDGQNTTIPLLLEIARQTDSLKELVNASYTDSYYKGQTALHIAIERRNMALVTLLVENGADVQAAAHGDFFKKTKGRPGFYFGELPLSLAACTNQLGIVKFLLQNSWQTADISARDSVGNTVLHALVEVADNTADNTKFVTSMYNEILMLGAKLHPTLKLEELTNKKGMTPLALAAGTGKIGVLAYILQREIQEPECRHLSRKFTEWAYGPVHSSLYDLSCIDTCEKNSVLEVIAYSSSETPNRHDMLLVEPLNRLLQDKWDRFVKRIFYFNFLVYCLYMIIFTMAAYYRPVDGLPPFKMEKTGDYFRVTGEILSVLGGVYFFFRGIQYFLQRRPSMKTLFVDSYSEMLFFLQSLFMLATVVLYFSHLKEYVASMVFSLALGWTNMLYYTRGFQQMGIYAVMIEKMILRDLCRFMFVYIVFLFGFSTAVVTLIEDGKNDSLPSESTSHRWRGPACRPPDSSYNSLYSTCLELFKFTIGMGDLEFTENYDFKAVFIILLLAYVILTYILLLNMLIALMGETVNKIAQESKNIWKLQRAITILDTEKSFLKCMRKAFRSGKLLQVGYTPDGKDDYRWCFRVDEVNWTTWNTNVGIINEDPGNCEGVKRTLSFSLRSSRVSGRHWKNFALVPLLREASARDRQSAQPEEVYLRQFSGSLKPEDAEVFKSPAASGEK
#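 Cells expressing TRPV1 were dye-loaded with Fluo-8 and read kinetically: 10 s baseline, 3 min after compound (agonist portion), then 2 min after EC20 capsaicin (allosteric enhancer portion). Calcium-bound dye fluorescence at 480/520 nm.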
# Six1-Eya2 blk: inhibitors of human Six1/Eya2 interaction. AlphaScreen GST-Six1/His-Eya2 binding, biochemical; stronger effect = lower value; control for the full effect not named in the record. activity change, % (no concentration beside the values). hit rate 0.56% among 360,000. AID 651725; in the data active = activity change below about -65%; inconclusive = about -30% to -65%; inactive = above about -30%; also: % is scaled to controls: 0 for no effect and ±100 for the full control effect; compound concentration not given in the record
#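 AlphaScreen luminescence read after one hour at 37 °C in darkness. Pin-transferred compounds met GST-Six1 and His-Eya2 protein (5X stock 250 nM/500 nM) plus glutathione donor and Ni-chelate acceptor beads (5X, 50 ug/mL).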
# Sfp inh: inhibitors of Bacillus subtilis Sfp phosphopantetheinyl transferase; Q9F4F7; AID 1490; Potency, µM, inactives show max response, negative = inhibition, most hits filed as inhibitors; hit rate 3.5% among 310,000; Biochemical Sfp PPTase activity, qHTS; active = well fitted inhibition curve with a large enough effect; inconclusive = small, poorly fitted or top-dose-only effect, or another doubt; inactive = no such curve, though single readings can be large or run the other way;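 also: the enzyme is Sfp with the accession as filed and its product quenches rhodamine fluorescence; potency is read from the fitted curve at half-maximal effect; 0% = enzyme reaction without inhibitor and -100% = no enzyme wells; top concentration of the series not given in the record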
#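 Reaction rates are the 30-min fluorescence difference (ex 525, em 598 nm) in wells containing 15 nM Sfp, 5 uM rhodamine-CoA and 12.5 uM BHQ-2-YbbR at pH 7.6 with 10 mM MgCl2.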
# D2 potentiator: human D2 receptor positive allosteric modulation; P14416; DiscoveRx D2 beta-arrestin cells, luminescence, 90 min; 100% = 57 uM dopamine signal; potentiation, % (concentration not given with the values); hit rate 0.23% among 360,000; active = potentiation of 50% or more; inconclusive = 30% to 50%; inactive = 30% or less;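 also: compound concentration not given in the record; tested on top of an EC20 dose of dopamine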
#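 PathHunter beta-arrestin assay in DiscoveRx D2 cells. Compounds were added with an EC20 of dopamine (50 nM final) for 90 min at 37 deg C. Luminescence was read 1 h after detection reagent, with 57 uM dopamine as the EC100 control.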
# PINK1 expr mod: PINK1 expression modulation; PINK1 immunofluorescence, high-content cytometry, 24 h; Potency, µM (highest dose often 76.6 µM), for the others: top-dose activation (PINK1 increase), usual class: activators; hit rate 0.2% among 410,000; active = well fitted activation curve with a large enough effect; inconclusive = small, poorly fitted or top-dose-only effect; inactive = flat fitted curve, though single readings scatter; cell line not stated here;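 also: potency is read from the fitted curve at half-maximal effect; % of control where 0% means no effect; nearly all actives have a fitted effect of over 65% in size; a mitochondrial uncoupler was the plate control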
#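 Readout is PINK1 immunofluorescence, quantified alongside mitochondrial, cell and nuclear markers by laser-scanning microplate cytometry. Cells from a stable line were exposed to compound titrations (5 concentrations) for 24 hours, with CCCP controls.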
# CtBP-E1A blk: blocks the CtBP interaction with E1A; activity change, % (no concentration beside the values); AlphaScreen GST-E1A/His-CtBP binding, 1536-well; stronger effect = lower value; control for the full effect not named in the record; hit rate 0.49% among 340,000; AID 651724; in the data active means activity change below about -65%; inconclusive means about -30% to -65%; inactive means above about -30%; also: % is scaled to controls: 0 for no effect and ±100 for the full control effect; compound concentration not given in the record
#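 AlphaScreen with 125 nM GST-E1A and 125 nM His-CtBP (5X stocks) in Tris pH 8.0, 300 mM NaCl, BSA, Tween 20, TCEP. Compounds preincubated 2 h at 37 deg C, then glutathione donor/nickel acceptor beads added for 1 h at 37 deg C in dark.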
# D2 ag: activates the human D2 dopamine receptor; P14416; DiscoveRx PathHunter D2 beta-arrestin, luminescence, 90 min; 100% = 57 uM dopamine signal; activation, % (test concentration not listed); hit rate 0.084% among 360,000; AID 624465; in the data active = activation above about 40%; inconclusive = about 15% to 40%; inactive = below about 15%; also: compound concentration not given in the record; the text of the record calls up to 30% inactive
#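 DiscoveRx PathHunter D2 beta-arrestin cells (2,100/well) attached overnight, then compound-stimulated 90 min at 37 C in HBSS/10 mM HEPES/0.1% Tween-20 buffer; beta-galactosidase complementation read by luminescence after 1 h at ambient temperature. Dopamine 57 uM final (EC100) as control.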
# An asterisk follows results filed as active; ? = inconclusive; . = not tested or not shown; & = joins results of further samples; [ ] = another dose, or the depositor's remark. Hits appear at their usual frequency. About 3.7% of those tested had a hit in this group.
structure	TRPV1 PAM	Six1-Eya2 blk	Sfp inh	D2 potentiator	PINK1 expr mod	CtBP-E1A blk	D2 ag
O=C(O)C1CCN(S(=O)(=O)c2ccc(N3CCOCC3)c([N+](=O)[O-])c2)CC1	1	-1	20%	0	1.7%	-8	-2.7
CC(C)(CNC(=O)c1cccs1)CNC(=O)c1cccs1	-1	-3	16%	-11	-2.2%[38.3 µM]	0	-5.6
Cn1c(=O)c2c(nc(SCCN3CCOCC3)n2Cc2ccccc2)n(C)c1=O	10	6	4%	-10	-0.8%	0	-1.6
Cc1ccc2cccc(OCc3ccc(Br)cc3)c2n1	-7	-5	-6%	-8	6.6%	12	1.4
CC12COC3(C(=O)Nc4cccnc4)CC1CCC32C (stereo unspecified)	4	-2	26%	-2	0.3%	5	-3.9
CCOC(=O)C1(Cc2ccccc2C(F)(F)F)CCN(CC2CC2)CC1	-8	-3	11%	-14	7.4%	2	-1.7
CN1CCN(c2ncnc3c2ncn3[C@H]2CN(Cc3ccc(F)cc3)C[C@@H](CO)O2)CC1	.	-2	.	-4	0.3%	4	-2.2
CC(C)C(=O)N(Cc1cc2ccccc2[nH]c1=O)C(C)C	-4	3	-2%	-13	1.0%[38.3 µM]	4	1.1
Cc1c(NC(N)=O)c(=O)n(-c2ccccc2)n1C	-4	13	5%	0	-0.9%	-14	5.6
COc1ccc(C(=O)NC(C(=O)NCCc2ccc3c(c2)OCCO3)C(C)C)cc1 (stereo unspecified)	?	5	15%	-15	-0.8%	.	-9.9
COC(C/C=C/[C@H](O)[C@@H](C)OCc1ccccc1)OC	.	2	.	-1	1.1%	11	-1.7
CC[C@@H](C)CN1C(=O)N[C@@H](CCc2ccccc2)C(C(C)=O)=C1C	?	0	21%&5%&13%	-3	0.1%	5	-1.6
O=CN1CCN(C(=O)C(=O)c2cn(CC(=O)N3CCCCC3)c3ccccc23)CC1	5	3	11%	3	0.6%	2	-3.6
COCCCNC(=S)N(CCCN(C)C)Cc1cc2cc3c(cc2[nH]c1=O)OCCO3	10	2	4%	-2	3.1%	-1	-3.2
O=C(CN1C(=O)/C(=C\c2ccco2)SC1=S)Nc1ccc(O)cc1C(=O)O	?	?	56µM*	-6	-1.4%	.	5.6
O=C(c1ccc(=O)oc1)N1CCOCC1	7	?	6%	7	1.1%	-11	-4.0
O=C1CCC(C(=O)OCC(=O)Nc2ccccc2Br)=NN1	.	12	.	-1	-0.6%	0	1.2
O=S(=O)(c1ccc(Br)c2ccccc12)N1CCOCC1	-16	3	-1%	-7	2.2%	-1	-3.4
CC1CN(S(=O)(=O)c2ccc(C(=O)Nc3nnc(-c4ccc5c(c4)CCCC5)o3)cc2)CC(C)O1 (stereo unspecified)	.	-1	2%	-2	1.7%	-2	0.6
Cc1cc(O)c(C(C)C)cc1NC1=NS(=O)(=O)c2ccccc21	-5	1	9%	-17	-0.5%	-1	0.0
Cc1cc(C)nc(-n2ncc3c2CC(c2ccc(C(C)C)cc2)CC3=O)n1 (stereo unspecified)	-4	-1	?	4	-2.4%	3	4.7
C[n+]1cccc2ccc3c(c21)OC(N)=C(C#N)C3c1ccccc1 (stereo unspecified)	24	-12	-16%	9	7.8%	-8	1.2
CCNC(=O)CCC(=O)Nc1cc(Cl)ccc1C	2	1	3%	-9	-0.6%	1	-1.1
Cc1ccc(S(=O)(=O)NCC(=O)OCC(=O)Nc2cccc(S(=O)(=O)N3CCOCC3)c2)cc1	.	-6	.	-3	-0.2%	2	0.7
CC(C)NC(=O)N(C)C[C@H]1OCCCC[C@@H](C)Oc2ccc(N(C)C)cc2C(=O)N([C@H](C)CO)C[C@@H]1C	.	-6	.	-4	0.5%	2	-3.0
CCc1cc2c(=O)c(-c3nc4ccccc4n3C)coc2c(CN2CCOCC2)c1O	-8	13	20%	-6	1.4%	-3	-5.2
COc1cccc(C(=O)CC(=O)C(=O)Nc2ccc([N+](=O)[O-])cc2C)c1	?	4	-20%	-4	-0.8%	-1	1.9
CCN(CC)C(=O)N1CCN(c2c([N+](=O)[O-])c(=O)oc3ccccc23)CC1	1	0	.	0	0.4%	.	-3.1
Cc1ccc(-n2nc3c(=O)n(CCCC(=O)N4CCC(C)CC4)nc(C)c3c2C)cc1	14	-1	11%	-6	5.9%	-5	1.3
Cc1ccc(CNC(=O)C23CN(Cc4ccccc4)CC2C(c2cccc([N+](=O)[O-])c2)=NO3)cc1 (stereo unspecified)	22	-22	-9%	-4	-0.9%	-22	-1.7
Cc1cccnc1CCNC(=O)CCc1nnc(CCc2ccccc2)o1	0	3	1%	-3	0.7%	2	-2.8
CC(C)c1ccc(/C=C/C(=O)N2CCOCC2)cc1	8	8	5%	-6	-0.4%	7	-1.2
O=C1CCCCc2sc(Br)c([N+](=O)[O-])c2N1	5	5	-5%	2	-1.6%	5	-1.4
CCCCOc1cccc(C(=O)NC(=S)Nc2cccc(NC(=O)c3ccccc3Cl)c2)c1	-6	-11	-3%	3	13%	2	-5.1
O=C(N/N=C/C=C/c1ccccc1)C1CC1c1ccccc1 (stereo unspecified)	9	-2	-2%	-3	2.2%	1	-2.1
CSc1nsc(SCc2ccc(F)cc2)n1	-6	57	4%	-8	13%	68	-3.1
C=CCNC(=O)c1onc(CSc2ccc(C(C)C)cc2)c1C(=O)O	6	-3	10%	-5	5.0%	6	-2.4
COc1cc(OC)c(C2=NOC(C(=O)NCc3cccnc3)C2)cc1Cl (stereo unspecified)	-5	4	4%	54*	13%	.	3.4
CCCCc1noc(-c2c(-c3ccccc3Cl)noc2C)n1	-7	43	-5%	0	8.1%	23	0.9
Cc1cccc(OCC(=O)N(Cc2ccc(F)cc2)C2CCS(=O)(=O)C2)c1C (stereo unspecified)	2	2	4%	-7	-1.5%	3	-2.9
O=C1NC(c2ccc(Cl)cc2)Oc2ccccc21 (stereo unspecified)	0	-6	9%	-20	-0.4%	.	-4.1
COc1cc2oc(=O)cc(CN(Cc3ccccc3)Cc3ccccc3)c2cc1Cl	.	0	.	-6	0.3%	2	-5.6
Cn1cc(/C=N/NC(=O)c2ccccc2O)c2ccccc21	-5	6	9%	-33	-0.8%	.	-5.4
CC(=O)Nc1ccc(S(=O)(=O)NC2=C(N3CCN(C)CC3)C(=O)c3ccccc3C2=O)cc1	15	-7	-10%	-6	-0.8%	.	2.2
Cc1nc2ccccc2c2nc(NC(=O)C(F)(F)F)nn12	5	-5	11%	-5	-0.6%	11	-0.8
COc1ccc(N/N=C(/C)c2cnnc(-c3ccccc3)n2)cc1	4	7	-23%	5	?	-3	-1.2
Cc1cccc(N(C(=O)Cn2nnc(-c3ccc(C)o3)n2)C(C(=O)NC2CCCC2)c2ccncc2)c1 (stereo unspecified)	3	7	10%	1	-1.5%	0	-1.1
C=C(C)CSc1nc2sc3c(c2c(=O)n1-c1ccc(C)cc1)CCN(C)C3	?	17	?	-10	-0.2%	5	-0.2
O=C(NCC(c1ccco1)N1CCc2ccccc2C1)c1ccc(F)cc1 (stereo unspecified)	?	0	.	-24	6.7%	1	-9.8
Cc1ccccc1N(Cc1ccccc1F)S(C)(=O)=O	-6	6	16%	-4	4.7%[38.3 µM]	7	-2.7

# Following part
structure	TRPV1 PAM	Six1-Eya2 blk	Sfp inh	D2 potentiator	PINK1 expr mod	CtBP-E1A blk	D2 ag
CN(C)C(CNC(=O)CCNC(=O)c1ccc(Br)cc1)c1ccco1 (stereo unspecified)	11	0	.	-16	-1.1%	0	-3.4
CCC(CC)C(=O)N1CC(=O)Nc2ccc(C)cc2C1c1ccccc1 (stereo unspecified)	-25	7	7%	-4	0.0%	1	4.1
O=C(Nc1cc(C(=O)N2CCN(c3ccccc3)CC2)ccc1Cl)c1cccs1	.	-6	.	-22	-0.2%	-2	-2.9
CCCCC(C(=O)N/N=C/c1ccccn1)C(=O)N/N=C/c1ccccn1	.	-11	35µM*	-19	-1.0%	-14	-3.3
CCCC(=O)N1CCCC(c2cc(C(=O)Nc3ccccc3)no2)C1 (stereo unspecified)	.	2	.	3	0.2%	1	10
CCOC(=O)c1cccc(NC(=O)C2(S(=O)(=O)c3ccc(Cl)cc3)CC2)c1	5	3	5%	-6	1.2%	9	-7.5
Cn1nc(C(F)(F)F)c2cc(C(=O)Nc3ccc(F)cc3F)sc21	-7	-8	-9%	-20	0.5%	-6	3.1
O=S(=O)(c1ccc(Br)cc1)n1c(Cc2ccccc2)nc2ccccc21	3	2	13%	0	-1.6%	8	-2.4
Cc1csc2nc(CCNS(=O)(=O)c3cccs3)cn12	29	0	21%	-2	-1.3%	3	-1.5
CC[N+]1=CN(c2ccccc2)C(C)=CC1(C)C	-1	1	-12%	-7	14%	-2	-2.0

# An excerpt of these results, with values under each structure:
# The line under a structure holds: TRPV1 PAM, Six1-Eya2 blk, Sfp inh, D2 potentiator, PINK1 expr mod, CtBP-E1A blk, D2 ag
Cn1nc(C(F)(F)F)c2cc(C(=O)Nc3ccc(F)cc3F)sc21
 : -7, -8, -9%, -20, 0.5%, -6, 3.1
O=S(=O)(c1ccc(Br)cc1)n1c(Cc2ccccc2)nc2ccccc21
 : 3, 2, 13%, 0, -1.6%, 8, -2.4

# The list continues:
structure	TRPV1 PAM	Six1-Eya2 blk	Sfp inh	D2 potentiator	PINK1 expr mod	CtBP-E1A blk	D2 ag
O=C(OCC(=O)N1CCOCC1)c1ccccc1OCc1ccccc1	-18	0	.	-2	2.5%	-1	-2.7
CCc1ncc(CN2CCCC(C(=O)Nc3cccc(-c4cccc(C)c4)c3)C2)cn1 (stereo unspecified)	0	-2	9%	-21	-3.3%	-1	-0.2
COc1ccc(S(=O)(=O)N2CCC(C(=O)NC3CC3)CC2)cc1Cl	2	7	10%	-13	0.8%	6	-4.6
O=C(CCN1CCCO1)N1CCCC(Nc2cccc(F)c2)C1 (stereo unspecified)	.	-5	.	-3	1.4%	3	-1.2
COc1ccc(CCNC(=O)c2ccccc2C(=O)NCCc2ccc(OC)c(OC)c2)cc1OC	.	8	.	3	0.2%	3	-5.2
Cc1cc(NC(=O)c2cnn3c(C(F)(F)F)cc(-c4ccc(Br)cc4)nc23)no1	-1	-7	?	-10	19%[38.3 µM]	-18	0.2
O=C(COC(=O)c1ccc(Cl)nc1)Nc1ccc(S(=O)(=O)N2CCCC2)cc1	7	-6	-5%	-3	3.5%	-1	-1.9
